FGF22 binding – FGF22 (human) thermal shift binding | Q9HCT0 | recombinant FGF22 thermal shift, SYPRO orange fluorescence; percent of sucrose octasulfate shift, DMSO zero | calls only at 9.99 µM | 340,000 tested, 1.5% active | AID 651658;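 active = melting point raised past a set limit in the mean and every replicate; three in four hits are not shown here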
B2AR ag – agonists of human beta-2 adrenergic receptor inducing internalization; P07550; Am2.2-beta2AR cells, FAP receptor internalization, flow cytometry; reference of the scale not given here; response, % (no concentration beside the values); 340,000 tested, 0.43% active;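 active = response above a set limit, near 3 SD of response in nonfluorescent compounds, cut at about 42% in these data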;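 also: stock transfer was 100 nL into about 11 µL; a reference agonist was the positive control; negative values mostly stem from fluorescent compounds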
rRNA inh HTS – selective bacterial rRNA inhibition in E. coli | GFP signal change (wild-type ribosome), % (no concentration beside the values) | AID 720706 | E. coli WT GFP vs humanized-ribosome RFP mutants, fluorescence, 24 h; hits give low values; DMSO median 0, no signal -100 | 350,000 tested, 1.6% active;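 active = significant combined selectivity score with lowered wild-type GFP, culture density cut under 30%, mutant RFP and density less affected; inactive = any of these conditions unmet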; also: one replicate is shown; some compounds called inactive have numbers as strong as hits
HNF4A DNA FP – change in binding of human HNF4 alpha to DNA | AID 1224865 | 360,000 tested, 0.3% active | activity change, % at 10 µM | HNF4a-FITC DNA binding, fluorescence polarization, 1 h; in the data active = activity change above about 30%, passing the limit was not always enough;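 also: controls were the assay level and a saturating level of protein; the project sought stronger binding though the title names inhibitors; some compounds called inactive have numbers as strong as hits; positive values seem to mean higher polarization but the record does not say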
Target sequence (P41235 whole entry, looked up): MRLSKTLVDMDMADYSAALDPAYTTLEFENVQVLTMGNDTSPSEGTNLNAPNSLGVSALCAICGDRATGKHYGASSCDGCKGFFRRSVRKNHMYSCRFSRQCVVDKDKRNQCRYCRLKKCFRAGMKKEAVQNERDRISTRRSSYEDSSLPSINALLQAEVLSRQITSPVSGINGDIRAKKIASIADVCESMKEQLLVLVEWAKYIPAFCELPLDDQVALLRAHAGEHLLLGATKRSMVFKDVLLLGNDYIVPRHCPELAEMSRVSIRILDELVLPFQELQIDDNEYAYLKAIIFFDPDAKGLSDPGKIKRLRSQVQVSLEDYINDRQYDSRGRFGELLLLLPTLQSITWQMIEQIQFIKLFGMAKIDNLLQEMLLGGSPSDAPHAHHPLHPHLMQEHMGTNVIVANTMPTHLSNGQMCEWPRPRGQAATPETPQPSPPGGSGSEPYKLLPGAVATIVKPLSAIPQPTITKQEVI
UCH37 DUB inh – inhibitors of human deubiquitinating enzyme UCH37; Q9Y5K5; AID 588478; 330,000 tested, 0.33% active; inhibition, % (test concentration not listed); purified proteasome/UCH37, Ub-AMC cleavage fluorescence;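 active = mean of two replicates above 20%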;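 also: 0% = compound-free wells with enzyme and 100% = wells lacking proteasome; stock transfer was 100 nL into about 20 µL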
Target sequence (Q9Y5K5 whole entry, looked up): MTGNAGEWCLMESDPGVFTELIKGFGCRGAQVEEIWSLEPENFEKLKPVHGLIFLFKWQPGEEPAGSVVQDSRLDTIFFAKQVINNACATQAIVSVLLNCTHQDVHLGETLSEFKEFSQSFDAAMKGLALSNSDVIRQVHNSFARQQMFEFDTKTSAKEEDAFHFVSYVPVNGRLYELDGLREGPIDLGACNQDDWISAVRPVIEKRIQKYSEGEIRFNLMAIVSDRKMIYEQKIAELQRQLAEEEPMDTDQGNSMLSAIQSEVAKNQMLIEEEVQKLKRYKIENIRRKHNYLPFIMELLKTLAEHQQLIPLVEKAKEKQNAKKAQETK
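System: Proteasome-associated human UCH37 deubiquitinase; Input: 0.15 nM proteasome in added enzyme buffer; Also added: Ub-AMC substrate from 1 µM stock; Incubation: 30 min compound-proteasome preincubation then 25 min substrate reaction, room temperature; Detection: fluorescence, ex 355 nm, em 460 nm; Read-out: % inhibition of Ub-AMC cleavage fluorescence; Benchmarks: no-proteasome and no-compound wells.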
E coli growth – E. coli growth inhibition; Escherichia coli growth, OD600, 23 h; hits give low values; OD600 absorbance (no concentration beside the values); 330,000 tested, 0.21% active; AID 1053175;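 active = OD600 absorbance below the run mean of sample wells minus 3.6 SD, in any replicate, cut at about 0.56 in these data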;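 also: stock transfer was 300 nL into about 60 µL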
ALR H2O2 inh – human ALR oxidase inhibition via reduced H2O2 | P55789 | inhibition, % (test concentration not listed) | purified ALR, DTT oxidation, H2O2 HRP-luminol luminescence | 290,000 tested, 3.8% active;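 active = mean and each replicate at 75% or more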;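 also: stock transfer was 7.5 nL into about 7.5 µL; 0% = neutral wells and 100% = wells with inactivated enzyme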
Target sequence (P55789 whole entry, looked up): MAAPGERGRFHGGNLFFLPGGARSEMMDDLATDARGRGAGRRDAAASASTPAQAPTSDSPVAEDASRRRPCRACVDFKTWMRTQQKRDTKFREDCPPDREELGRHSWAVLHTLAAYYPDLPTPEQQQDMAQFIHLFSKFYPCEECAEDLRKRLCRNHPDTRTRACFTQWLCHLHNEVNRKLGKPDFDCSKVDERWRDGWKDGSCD
rRNA inh HTS OD600 – second read-out of rRNA inh HTS, no call of its own (marks repeat the call); OD600 change, %; measured here: OD600 growth;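 optical density of the mix in the first replicate; 0 = DMSO median and -100 = no signal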
rRNA inh HTS RFP – further read-out of rRNA inh HTS, marked with its call; RFP signal change, %; measured here: RFP humanized mutant strains;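 first replicate; 0 = DMSO median and -100 = no signal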
* = called active by the depositor; i = inactive; . = not tested or not shown; & = joins results of further samples. The list is partial; rates above refer to the full screens.

#	compound	FGF22 binding	B2AR ag	rRNA inh HTS	rRNA inh HTS OD600	rRNA inh HTS RFP
1	COn1c(-c2ccccc2)nc2ncccc21	i	-1.9	0.3	-3.5	0.7
2	COCCCNC1CS(=O)(=O)CC1O (stereo not drawn)	i	-10.0	7.9	-1.4	-4.6
3	O=C(COC(=O)C12CC3CC(CC(C3)C1)C2)NCCc1ccccc1	.	-0.7	.	.	.
4	CCOC(=O)c1ccc(NC(=O)CN2CCN(Cc3ccccc3)CC2)cc1	i	1.7	7.1	-4.2	20.9
5	CSc1nc(N2CCOCC2)c2c(c1C#N)CC(C(C)C)OC2 (stereo not drawn)	i	1.3	8.7	-1.9	2.8
6	Cc1cc(=O)n(-c2ccc(C(=O)O)cc2)[nH]1	i	-0.3	13.5	8.7	-1.9
7	CC(C)CNC(=S)NC(=O)c1csc([N+](=O)[O-])c1	i	-2.9	.	.	.
8	CCn1nnnc1SCC(=O)Nc1ccc(N(C)C)cc1	i	4.9	10.5	17.7	-0.8
9	N/C(=N\OC(=O)Cc1ccc(-c2ccccc2)cc1)c1ccncc1	i	-2.4	-12.7	-14.8	-5.9
10	Cc1c(C(=O)N2CCOCC2)cc(C(C)(C)C)n1-c1ccccc1	i	3.4	-1.9	5.2	2.2
11	O=C(O)c1ccc(C=NN2CCCCCC2)cc1	i	22.3	23.8	-0.5	4.0
12	c1cncc(-c2nc3ccccn3c2Nc2ccc3c(c2)OCCO3)c1	i	-13.9	-9.8	-22.5	1.7
13	COCCNC(=O)C1CCCN(C(=O)c2csc3ccccc23)CC1 (stereo not drawn)	i	.	5.4	5.4	1.4
14	CCN(CC)S(=O)(=O)c1ccc(N2CC(C(=O)NCCc3c[nH]c4ccccc34)CC2=O)cc1 (stereo not drawn)	.	-4.1	-8.7	-12.1	3.3
15	Cn1c(=O)c2ncn(CC(=O)N=Nc3c(O)[nH]c4ccccc34)c2n(C)c1=O	.	.	.	.	.

#	HNF4A DNA FP	UCH37 DUB inh	E coli growth	ALR H2O2 inh
1	5.0	-12.9	0.648	-1.0
2	-3.9	1.7	0.722	-2.8
3	-0.6	2.0	0.706	-1.6
4	-1.2	1.3	0.696	-3.7
5	1.8	6.4	0.697	2.4
6	-0.6	1.0	0.727	-47.9
7	3.7	3.8	0.567	-15.7
8	2.7	4.8	0.678	.
9	0.9	2.2	.	-0.9
10	-1.5	0.3	0.669	-1.7
11	-0.1	12.4	0.721	.
12	1.2	-14.2	0.74	.
13	-2.5	.	.	.
14	4.4	-0.3	0.695	.
15	.	6.9	0.74	-4.8

Four compounds from above, arranged by the value under rRNA inh HTS, rising:
#	canonical_smiles	rRNA inh HTS
4	CCOC(=O)c1ccc(NC(=O)CN2CCN(Cc3ccccc3)CC2)cc1	7.1
8	CCn1nnnc1SCC(=O)Nc1ccc(N(C)C)cc1	10.5
6	Cc1cc(=O)n(-c2ccc(C(=O)O)cc2)[nH]1	13.5
11	O=C(O)c1ccc(C=NN2CCCCCC2)cc1	23.8

New compounds follow
#	compound	FGF22 binding	B2AR ag	rRNA inh HTS	rRNA inh HTS OD600	rRNA inh HTS RFP
16	CCN1CCN(CCCNC(=O)c2ccc(/C=C3/Sc4ccccc4N(Cc4ccccc4F)C3=O)cc2)CC1	.	47.3*	-48.5	-57.5	-12.0
17	COC(=O)c1sccc1NC(=O)c1ccc(OC)c([N+](=O)[O-])c1	i	3.7	4.5	6.0	1.3
18	CC(=O)c1ccc(-n2cc(C#N)c(=O)[nH]c2=O)cc1	i	2.5	4.1	3.5	3.0
19	CCCn1c(N)c(C(=O)CSc2nnc(Cc3cccs3)n2C2CC2)c(=O)n(C)c1=O	i	10.4	.	.	.
20	c1nc(N2CCCCC2)c2[nH]cnc2n1	i	5.1	10.6	8.5	1.9
21	CCOC(=O)C1C(=O)NC(N2CCc3ccccc32)=NC1c1ccccc1 (stereo not drawn)	.	0.4	.	.	.
22	O=C1Nc2ccccc2C1(c1ccccc1)c1ccccc1	.	13.1	.	.	.
23	O=C(COC(=O)[C@@H]1CCCN1C(=O)c1cccs1)NCCc1ccccc1	.	1.4	1.6	-2.2	-0.4
24	Cc1cccc2nc(CSc3nc4ccccc4o3)cn12	i	-11.2	-21.5	-25.9	2.5
25	COc1ccc(C(=O)NCC(=O)N/N=C/c2cccnc2)cc1	i	2.4	3.1	13.3	-1.1
26	COc1ccc(C2CC(=O)n3c(nc4ccccc43)S2)cc1OC (stereo not drawn)	.	-3.1	.	.	.
27	O=C(Nc1ccccc1[N+](=O)[O-])c1ccc(S(=O)(=O)N2CCCC2)cc1	i	-3.3	1.1	7.7	2.3
28	Cc1ccc(NC(=O)CCNS(=O)(=O)c2ccc3c(c2)CCC(=O)N3)cc1C	i	0.5	-6.5	-7.7	2.4
29	CCOC(=O)C1(Cc2ccccc2)CCN(Cc2cn(CC(=O)OC)c3ccccc23)CC1	i	1.2	12.3	5.8	-3.7
30	Oc1ccc(Nc2nc(-c3ccc4ccccc4c3)cs2)cc1	.	11.7	.	.	.

#	HNF4A DNA FP	UCH37 DUB inh	E coli growth	ALR H2O2 inh
16	5.5	-9.3	0.621	-10.8
17	1.1	3.3	0.706	2.7
18	2.6	-0.9	0.693	.
19	-3.1	0.8	0.712	0.2
20	2.3	-1.5	0.697	5.7
21	-0.3	3.5	0.726	-3.8
22	2.4	3.1	0.668	-14.5
23	0.2	3.6	0.705	-0.7
24	0.1	2.1	0.64	.
25	1.7	.	.	-3.1
26	0.4	-0.1	0.653	1.0
27	2.0	2.0	0.699	-29.0
28	4.2	1.8	0.66	-6.2
29	0.0	1.4	0.712	-4.3
30	-5.0	-8.9	0.631	11.7

Next part, overlapping the part above by seven compounds.
#	compound	FGF22 binding	B2AR ag	rRNA inh HTS	rRNA inh HTS OD600	rRNA inh HTS RFP
24	Cc1cccc2nc(CSc3nc4ccccc4o3)cn12	i	-11.2	-21.5	-25.9	2.5
25	COc1ccc(C(=O)NCC(=O)N/N=C/c2cccnc2)cc1	i	2.4	3.1	13.3	-1.1
26	COc1ccc(C2CC(=O)n3c(nc4ccccc43)S2)cc1OC (stereo not drawn)	.	-3.1	.	.	.
27	O=C(Nc1ccccc1[N+](=O)[O-])c1ccc(S(=O)(=O)N2CCCC2)cc1	i	-3.3	1.1	7.7	2.3
28	Cc1ccc(NC(=O)CCNS(=O)(=O)c2ccc3c(c2)CCC(=O)N3)cc1C	i	0.5	-6.5	-7.7	2.4
29	CCOC(=O)C1(Cc2ccccc2)CCN(Cc2cn(CC(=O)OC)c3ccccc23)CC1	i	1.2	12.3	5.8	-3.7
30	Oc1ccc(Nc2nc(-c3ccc4ccccc4c3)cs2)cc1	.	11.7	.	.	.
31	CCOC(=O)C1=C(c2ccccc2)OC(N)=C(C#N)C1C1CCCCC1 (stereo not drawn)	.	20.9	.	.	.
32	CCCn1c(N)c(N(CCOC)C(=O)c2ccccc2F)c(=O)[nH]c1=O	i	-3.4	-0.8	-8.4	-0.9
33	Cc1ccc(CC2CC(=O)N(c3cc(C)on3)C2=O)cc1 (stereo not drawn)	i	16.9	11.7	7.6	1.9
34	CCOC(=O)NC(=O)C(=CNc1ccccc1OC)C(=O)NC(=O)OCC	.	5.6	4.5	4.1	2.3
35	COc1ccc(NC(=O)CSc2nc3nc(C)cc(C)n3n2)cc1	i	-13.1	0.4	-1.4	-0.4
36	Cc1ccc(C(=O)Nc2ccon2)cc1S(=O)(=O)N1CCCC1	.	-23.0	.	.	.
37	COc1ccc(CCN=C(N)NS(=O)(=O)c2cccs2)cc1	i	2.5	1.8	2.7	-3.0
38	Cc1ccc(/C=N/N(C)S(=O)(=O)c2ccc(C)cc2)cc1	i	-14.0	10.8	5.3	-6.5
39	CCNC(=O)C1(C)CCN(C(=O)c2ccc(N(C)C)cc2)C1 (stereo not drawn)	i	.	8.1	2.9	-0.2
40	O=C1/C(=C\Nc2ccccc2)CCN1c1ncccn1	.	-13.4	.	.	.
41	CCOC(=O)[C@]12CCCC=C1N(Cc1ccco1)C(=O)[C@H](CC(=O)N1CCC(c3ccccc3)CC1)C2	i	.	-11.6	-18.2	2.3
42	CCN(CC)C(=O)C(C)OC(=O)COc1ccc(Cl)cc1Cl (stereo not drawn)	i	0.9	.	.	.
43	CCC(=S)/C=C1\Sc2ccccc2N1CCCS(=O)(=O)O	.	-2.4	.	.	.
44	CCOc1ccc(Nc2cc(=O)oc3ccccc23)cc1	i	-6.9	6.8	3.9	-6.9
45	O=C(c1ccc(Cl)c(S(=O)(=O)N2CCCCCC2)c1)N1CCCCC1	i	-8.5	-21.2	-16.9	-4.0

#	HNF4A DNA FP	UCH37 DUB inh	E coli growth	ALR H2O2 inh
24	0.1	2.1	0.64	.
25	1.7	.	.	-3.1
26	0.4	-0.1	0.653	1.0
27	2.0	2.0	0.699	-29.0
28	4.2	1.8	0.66	-6.2
29	0.0	1.4	0.712	-4.3
30	-5.0	-8.9	0.631	11.7
31	0.6	5.8	0.799	-5.9
32	-3.1	1.2	0.668	-1.0
33	0.7	7.9	0.746	-2.3
34	-0.8	2.7	0.705	-6.1
35	2.8	6.1	0.651	-3.4
36	-1.6	4.0	0.635	-15.1
37	2.0	-0.2	0.688	12.6
38	0.1	.	.	-3.2
39	0.7	.	.	.
40	0.4	21.0*	0.707	53.2
41	4.2	.	.	.
42	0.4	0.1	0.666	-21.8
43	0.1	5.9	0.688	38.1
44	-1.0	-209.7	0.664	-3.4
45	1.0	2.2	0.705	-15.3

#	compound	FGF22 binding	B2AR ag	rRNA inh HTS	rRNA inh HTS OD600	rRNA inh HTS RFP
46	COc1ccc(OC)c(S(=O)(=O)N(C)CC(=O)N2CCc3ccccc3C2)c1	.	-3.4	.	.	.
47	Cc1cc(N2C(=O)C(O)=C(C(=O)c3cccs3)C2c2ccc(F)cc2)no1 (stereo not drawn)	i	6.8	-25.9*	-14.3*	-2.6*
48	COc1cc(F)ccc1-c1cc(C(=O)NCc2cccs2)[nH]n1	i	.	3.0	-11.2	0.0
49	CCOc1ccccc1NC(=O)CSc1nnc(CNC(=O)c2ccco2)o1	.	-8.8	.	.	.
50	Cc1ccc(OCC(=O)NCc2cccnc2)cc1	i	4.7	3.4	4.5	1.2
51	C[C@H](CO)N1C[C@H](C)[C@@H](CN(C)Cc2ccc(-c3ccccc3)cc2)Oc2c(NC(=O)Nc3ccc4c(c3)OCO4)cccc2C1=O	i	12.8	2.5&-11.1	4.7&-16.5	0.5&1.1
52	CNc1ccccc1C(C)(C)c1cc(-c2cccc([N+](=O)[O-])c2)no1	i	-0.3	-6.8	-7.6	24.5
53	COc1cc2c(cc1OC)CN(C(=O)/C=C/c1cccs1)CC2	i	2.3	-14.5	-11.6	11.3
54	O=C(NCC1CCCO1)C(C(=O)c1ccccc1)n1ccccc1=O (stereo not drawn)	.	-8.5	.	.	.

#	HNF4A DNA FP	UCH37 DUB inh	E coli growth	ALR H2O2 inh
46	3.9	3.9	0.665	-6.5
47	-1.4	11.0	0.669	26.4
48	0.0	.	.	.
49	1.0	0.2	0.682	-14.6
50	-2.4	-1.8	0.663	-5.9
51	0.0	2.6	.	-2.8
52	-4.3	2.1	0.691	-4.5
53	4.1	6.6	0.634	-5.6
54	-1.9	3.5	0.734	-6.5

High-throughput results as filed in PubChem BioAssay.
